CDC25B CDK2 inh = human CDC25B-CDK2/CyclinA binding inhibition; z-score (concentration not given with the values); AID 1259370; 94,000 compounds, 0.72% hits; HTRF CDC25B-CDK2/CyclinA binding, anti-His/anti-Flag; stronger effect = higher value;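 note: score is relative to mean and SD of negative controls; strong numbers were not always called active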
HIV TAR-Tat = HIV-1 TAR-Tat binding disruption; HIV-1 TAR RNA, Tat peptide displacement FRET; stronger effect = higher value; z-score (no concentration beside the values); 100,000 compounds, 0.6% hits;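 note: score is relative to mean and SD of negative controls; some compounds called inactive have numbers as strong as hits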
An asterisk follows results filed as active; · = not tested or not shown.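 Rule for the calls: active = z-score from 3 up in half or more of its runs; inactive = the rest.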

Compound | HIV TAR-Tat | CDC25B CDK2 inh
O=C(O)CCCC(=O)NC1CCCc2ccccc21 (configuration not stated) | · | -1.2
CC(=O)Oc1ccc2ccccc2c1-c1c(OC(C)=O)ccc2ccccc12 | -0.52 | -2
C/C(=N\N=C1\NC(=O)C(CC(=O)Nc2ccc(C)c(Cl)c2)S1)c1ccc(F)cc1 (configuration not stated) | · | 1.6
CCCc1nc2n(n1)C1(CCCCC1)[C@@H]1CCCC[C@@H]1N2 | 0.64 | 0.04
CCCCCCn1c(CN2CCN(c3ccc(F)cc3)CC2)nc2c1c(=O)n(C)c(=O)n2C | -0.63 | -1.6
CN(C)S(=O)(=O)c1ccc2c(c1)nnn2CCCC(=O)NC1CCCCC1 | 1.4 | ·
COC(=O)C1=C(C)Nc2nnnn2C1c1ccc(OC)cc1 (configuration not stated) | · | 0.57
Cc1ccc(CSc2ncc(CO)n2Cc2ccc(Cl)cc2)cc1 | 1.1 | ·
Cc1cc(C)nc(NC(=O)CSc2nn(C)c(=S)s2)n1 | 1.1 | -0.65
CCOC(=O)Cn1ccc2c(=O)n(C)c(=O)n(C)c21 | -0.25 | -0.71

Going on with the list:
Compound | HIV TAR-Tat | CDC25B CDK2 inh
COc1ccc2c(c1)c(NC(C)=O)c1n2CC(C)(C(=O)NC2CCCC2)N(C2CCCCC2)C1=O (configuration not stated) | 1.7 | ·
Cc1cc(-c2ccc(S(=O)(=O)N3CCN(C(=O)c4ccco4)CC3)s2)n[nH]1 | -0.91 | ·
Cc1nn(-c2ccccc2)c2sc(C(=O)Nc3ccccc3Br)cc12 | -1.7 | -1.6
CCOc1nc(-c2ccc(Cl)cc2)ccc1-c1noc(-c2ccncc2)n1 | -0.71 | 0.9
COC(=O)c1ccc(/C=C/c2onc(C)c2[N+](=O)[O-])cc1 | 1.3 | -0.41
CC(C)Oc1ccccc1C1C=C(C(=O)O)Nc2ncnn21 (configuration not stated) | 0.16 | 0.2
CCC1CCCCN1CCCNc1cnnc2c(Cl)cccc12 (configuration not stated) | 0.27 | ·
CCCCN(C)c1nnc(NC(=O)Nc2cc(Cl)c(OC)cc2OC)s1 | 0.6 | -3.1
CSc1ccccc1N=C(N)N=C(N)N | · | -2.1
CCOC(=O)c1c(C)oc2ccc(OC(C)C(=O)OCC)cc12 (configuration not stated) | · | -0.73

New compounds follow.
Compound | HIV TAR-Tat | CDC25B CDK2 inh
COc1cccc(Oc2c(C(F)(F)F)oc3cc(OC(=O)N4CCOCC4)ccc3c2=O)c1 | 0.26 | -1.1
Cc1ccc(-c2csc(NC(=O)CSc3nc4c(cc3C#N)C(=O)CCC4)n2)cc1 | 2.2 | -1.9
Cc1cc(C)c2c(=O)cc(CSc3nnc(-c4ccccc4)n3C)[nH]c2c1 | -1.4 | ·
CCOC(=O)c1c(NC(=O)N2CCOc3ccccc32)sc2c1CCCC2 | 1.7 | ·
COc1ccc(NC(=O)CSc2nnc(Cc3cccn3C)n2-c2ccc(F)cc2)c(OC)c1 | · | -1.4
COc1cccc(Nc2nc3c(S(=O)(=O)c4ccccc4)nnn3c3ccsc23)c1 | -0.65 | ·
O=C(CCc1nc2cccnc2n1Cc1cccs1)NCCc1c[nH]c2ccccc12 | -4.2 | -0.62
Cc1cc(NC(=O)CSc2ccc3nnc(-c4ccccc4)n3n2)no1 | · | -1.1
CC1Cc2cc(S(=O)(=O)N(C)CC(=O)NC3CCCCC3)ccc2N1C(=O)C1CCC1 (configuration not stated) | 0.77 | ·
CCCN1CCN(c2nnc(-n3cccc3CN3CCN(c4ccccn4)CC3)s2)CC1 | 0.1 | ·

(cont.)
Compound | HIV TAR-Tat | CDC25B CDK2 inh
CN(C)c1cc(N2CCCC2)c(F)cc1[N+](=O)[O-] | · | -1.3
COc1ccccc1N1CCN(c2cc(C)nc3nc(-c4ccco4)nn23)CC1 | 0.41 | -1.3
CCOc1ccc(N(C)S(=O)(=O)c2cc(-c3onc(C)c3C)ccc2OC)cc1 | 0.85 | ·
CC1CCN(CCCC(=O)c2ccc(F)cc2)CC1 | 1.5 | ·
O=c1c2c3c(sc2n(Cc2cc(=O)n4ccccc4n2)c(=O)n1-c1ccccc1)CCC3 | · | -3.2
COC(=O)c1c(C)nn2c1NC(=O)CC2 | 1.2 | -0.12
CN(Cc1ccccc1)S(=O)(=O)c1ccc(CN2C(=O)c3cccnc3C2=O)s1 | 0.36 | ·
O=C(CSc1cn[nH]c(=O)n1)NC1CCCCC1 | 3 | -1.4
Cc1cc(C)c(S(=O)(=O)Nc2ccc(N3CCCS3(=O)=O)cc2)c(C)c1 | 0.15 | ·
CC(C)c1nn2c(=O)cc(COC(=O)c3cccc(Cl)c3)nc2s1 | 0.02 | ·

Further records
Compound | HIV TAR-Tat | CDC25B CDK2 inh
Cc1c(C(=O)O)sc2ncnc(N3CCN(Cc4ccc5c(c4)OCO5)CC3)c12 | 1.6 | ·
C=CCn1c(SCC(=O)Nc2ccccc2F)nc2sc3c(c2c1=O)CCC3 | -0.68 | -1.3
COc1cn(CC(=O)N2CCCc3ccccc32)c(CSc2nnc(C)s2)cc1=O | 0.32 | ·
CC1CN(C(=O)CCC(=O)NCCCN2CCOCC2)c2ccccc2O1 (configuration not stated) | -0.51 | -2.3
CCOc1cc(C2OCC(C)(C)n3c(-c4ccccc4)c4c(=O)n(C)c(=O)n(C)c4c32)ccc1O (configuration not stated) | 0.18 | -1.9
CCNC(=O)c1nc(CS(=O)(=O)c2ccc(Cl)cc2)no1 | 0.52 | ·
CCC(CO)n1cc2c(c1-c1ccccc1)c(=O)n(C)c(=O)n2C (configuration not stated) | 19 | 0.82
O=C(NCc1csc(-c2cccs2)n1)[C@H]1CSCN1S(=O)(=O)c1ccc(F)cc1 | 0.16 | ·
O=C(Oc1ccc(OC(=O)c2ccco2)c(Cl)c1)c1ccco1 | 0.66 | 0.69
CCc1cc2c(cc3c(=O)n(CC(=O)NC4CCCC4)ncn32)s1 | · | -4.6

The listing continues.
Compound | HIV TAR-Tat | CDC25B CDK2 inh
Fc1ccc(-c2noc3ncnc(NCc4ccccc4Cl)c23)cc1 | 0.53 | ·
CCCN1CCN(CCNC(=O)Nc2c[nH]c3ccc(C)cc3c2=O)CC1 | 0.52 | -1.2
Cc1ccc(-n2nc(C)c(S(=O)(=O)Nc3cc(C)on3)c2C)cc1 | 0.47 | ·
O=C(Cn1c(=O)oc2ccccc21)NCCc1ccco1 | -0.98 | ·
CC(C)/C(=N/NC(=O)c1ccc(Cl)cc1)C(=O)O | · | 0.04
COc1ccc(-c2c(C)nn3c(N4CCOCC4)cc(C)nc23)cc1OC | 0.75 | -1.6
CCCc1nc(SC)ncc1C(=O)NC1CCCCC1 | 0.04 | ·
COc1ccc(CSc2nc3ccncc3n2Cc2nc(-c3ccc(OC)cc3)oc2C)cc1 | -0.05 | -20
Nc1c(C(=O)O)cnn1-c1ccc([N+](=O)[O-])cc1 | · | -1.2
CN(C)c1ccc(/C=C/c2ccccc2)cc1 | · | -0.01

Next section
Compound | HIV TAR-Tat | CDC25B CDK2 inh
Cc1c(-c2ccc(Cl)s2)nc2ccccc2c1C(=O)O | · | -1.9
CC(=O)Nc1ccccc1OCCN(Cc1ccccc1)C(=S)NCCC1=CCCCC1 | · | -2
CN(C(=O)CCc1nnc2ccc(N3CCCC3)nn12)c1ccc(F)cc1 | -0.17 | ·
COc1cccc(-c2noc(COc3ccccc3)n2)c1 | 3.2 | -1.9
CSC1=NC(C)=NC(=O)C1=P(c1ccccc1)(c1ccccc1)c1ccccc1 | · | -1
CCOc1cc(-c2ccc(OCc3ccccc3)cc2)cc(=O)c2c(C)oc(C)c12 | -2.4 | -2
Cc1nn(CC(=O)Nc2ccc(F)cc2F)c(=O)c2c1sc1ccccc12 | -0.31 | -1.8
CC1(C(=O)NC2CCCC2)CCC(=O)N1CCCN1CCCC1 (configuration not stated) | 0.19 | -0.78
Cc1ccc(C(=O)c2oc3ccccc3c2N)cc1 | 0.9 | -1.1
O=C(CN1Cc2ccccc2C1=O)N1CCN(c2ccc(F)cc2)CC1 | 2.3 | ·

Other records:
Compound | HIV TAR-Tat | CDC25B CDK2 inh
Cc1c(NC(=O)Nc2cccc(Cl)c2)c(=O)n(-c2ccccc2)n1C | -0.13 | -1.1
O=C(NCCN1CCOCC1)c1cnc(N2CCOCC2)nc1 | 1 | ·
N#Cc1ccc(C#CCOC(=O)c2cccs2)cc1 | · | 0.44
COc1cc(CCC(=O)O)cc(OC)c1OC | · | -1.5
COc1cc(-c2cc(N)n(S(=O)(=O)c3ccc(F)cc3)n2)cc(OC)c1OC | · | -2.4
CCn1cc(CCC(=O)NC2CCCC(C)C2C)c2ccccc21 (configuration not stated) | 1 | ·
O=C(Nc1ccc(F)cc1F)NC1CCN(c2ncccn2)CC1 | 1.1 | -0.77
CCOC(=O)N1CCC(NC(=O)c2cccn3c(=O)c4c5c(sc4nc23)CCCC5)CC1 | 2.2 | ·
O=C(CCCN1C(=O)c2cccnc2Sc2ccccc21)N1CCCCC1 | 0.47 | ·
Cc1ccc(C2CC(=O)NC(N)=N2)cc1 (configuration not stated) | -0.11 | ·

The list goes on.
Compound | HIV TAR-Tat | CDC25B CDK2 inh
CCN(CC)S(=O)(=O)c1ccc2c(c1)nnn2CCN | 0.53 | ·
COC(=O)c1scc(-c2ccccc2)c1S(N)(=O)=O | 1.6 | -1.4
CC1CCN(CCCNC(=O)c2cnc(N3CCOCC3)nc2)CC1 | 1.4 | ·
COc1cnc(CSc2nnnn2C)cc1OCC(=O)NCc1ccco1 | 3 | ·
O=C(Cn1c(=O)c2cccn2c2ccccc21)N1CCOCC1 | -0.33 | ·
COc1ccc(N2C(=O)CC(N3CCN(CCO)CC3)C2=O)cc1 (configuration not stated) | -0.9 | -0.41
COc1cc(C)c(C)cc1S(=O)(=O)N1CCc2cc3ccc(C)cc3nc21 | 0 | -1.4
CN(C)CCN(C(=O)C1COc2ccccc2O1)c1nc2ccc(Cl)cc2s1 (configuration not stated) | 1.2 | ·
Cc1cc(C)c2nc(N3CCC(C(=O)N4CCN(C(=O)c5ccco5)CC4)CC3)sc2c1 | 0.1 | -1.1
Cc1cc(Nc2ccc(N(C)C)cc2)n2nc(-c3ccccc3C)nc2n1 | 2.5 | -2.5

Nothing new here: 3 of the compounds above.
Compound | HIV TAR-Tat | CDC25B CDK2 inh
O=c1c2c3c(sc2n(Cc2cc(=O)n4ccccc4n2)c(=O)n1-c1ccccc1)CCC3 | · | -3.2
COC(=O)c1c(C)nn2c1NC(=O)CC2 | 1.2 | -0.12
CN(Cc1ccccc1)S(=O)(=O)c1ccc(CN2C(=O)c3cccnc3C2=O)s1 | 0.36 | ·

Going on with the list:
Compound | HIV TAR-Tat | CDC25B CDK2 inh
O=C1c2ccccc2S(=O)(=O)N1Cc1nc2ccccc2s1 | · | -1.6
CSc1ccc(NC(=O)c2cc3c4c(sc3nc2N)CCCC4)cc1 | 2.4 | -1.5
CN(C)c1ccc(/C=C2/OC(=S)NC2=S)cc1 | -8.6 | -1.3
Cc1ccnc2nc(NC(=O)C3CCCCC3)nn12 | -0.88 | -0.35
COc1ccc(NS(=O)(=O)c2ccc(/C=C/c3onc(C)c3[N+](=O)[O-])cc2)cc1Cl | 1.1 | ·
COc1ccc(C(=O)c2cnc3ccccc3c2-c2ccccc2)cc1 | · | -0.69
CCCCC(C(=O)O)N1C(=O)C2CC=C(Cl)CC2C1=O (configuration not stated) | 1.2 | -0.22
CCOc1ccc(S(=O)(=O)Nc2cccc(N3CCCS3(=O)=O)c2)cc1 | 0.42 | ·
COC(=O)Cn1ncc2c3ccccc3n(C)c2c1=O | 0.03 | -0.31
Cc1ccccc1OCc1nn2c(Cc3ccccc3)nnc2s1 | -0.17 | -0.37

Filtered by structure, the entries above with a cyano group (2)
Compound | HIV TAR-Tat | CDC25B CDK2 inh
Cc1ccc(-c2csc(NC(=O)CSc3nc4c(cc3C#N)C(=O)CCC4)n2)cc1 | 2.2 | -1.9
N#Cc1ccc(C#CCOC(=O)c2cccs2)cc1 | · | 0.44

Continuation.
Compound | HIV TAR-Tat | CDC25B CDK2 inh
CCOC(=O)c1sc(NC(C)=O)c(C(=O)OCC)c1C | · | -0.45
CC(=O)[C@H]1CCC2C3CC=C4C[C@@H](OS(=O)(=O)O)CC[C@]4(C)C3CC[C@@]21C (some centres not stated) | · | -0.73
O=C1c2ccccc2-c2onc3c(N4CCOCC4)cc(NC4CCCCC4)c1c23 | 0.24 | -0.89
COc1cccc(C2Nc3c(C)cccc3-c3cc(C)nn32)c1O (configuration not stated) | -0.27 | -1.1
COC(=O)C1=C(C)NC2=C(C(=O)CC(C)(C)C2)C1c1ccc(C)cc1 (configuration not stated) | -1.8 | -1.4
COC(=O)c1sc(N2C(=O)c3oc4ccccc4c(=O)c3C2c2ccc(C)o2)nc1C (configuration not stated) | 1.7 | 0.65
Cc1nc(N2CCOCC2)cc(N2CCN(C(=O)C(C)(C)C)CC2)n1 | 0.57 | -1.1
Cc1ccccc1CSc1nnc(CCN)o1 | 1.3 | -1.6
COc1ccc(Nc2cc(Nc3ccc(OC)c(Cl)c3)ncn2)cc1 | -0.18 | -2
COc1ccc(-c2cc3c(nn2)Nc2ccccc2S3)cc1 | · | -8.6

Going on with the list:
Compound | HIV TAR-Tat | CDC25B CDK2 inh
CC(C)c1ccc(S(=O)(=O)Nc2ccc3c(c2)CC(=O)N3C)cc1 | 1.9 | ·
COC(=O)c1ccc(/C=C2\C(=O)Nc3ccccc32)n1-c1ccc(F)cc1 | · | -1.7
Oc1ccc2c(c1)c(-c1ccccc1)nn2-c1ccccc1 | 0.74 | 1.2
CC(C)C(=O)N1CCCC(C(=O)Nc2sc3c(c2C(N)=O)CCCC3)C1 (configuration not stated) | 0.1 | 0.28
O=C(O)Cn1nnc(-c2ccc3c(c2)OCO3)n1 | · | -0.57
Cc1ccc(-c2[nH]nc3c2C(c2cccs2)C2=C(CCCC2=O)N3)cc1 (configuration not stated) | 2.5 | 0.18
C=CCn1c(N)c(C(=O)NC(C)c2ccccc2)sc1=S (configuration not stated) | 2.2 | ·
O=C(O)c1c[nH]c2ccccc2c1=O | 14 | 1.6
Cc1nc(C(=O)NCC(=O)c2cccc(Cl)c2)c(C(F)(F)F)o1 | · | -1.5
Cc1cc(OCC(O)CN2CCC(C)CC2)ccc1Cl (configuration not stated) | · | -13

Screens from PubChem.
